# BJeLR viability: lowers viability of BJeLR cells. BJeLR fibroblasts viability, CellTiterGlo ATP luminescence, 48 h; HRASV12, hTERT and SV40 LT/ST transformed. viability loss activity score, % (test concentration not listed). 30,000 tested, 0.64% active; in the data active = viability loss activity score above about 50%; inconclusive = no clear call, values can overlap the other calls; inactive = below about 35%; about a fifth of its hits are not listed in these tables;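 note: higher score means fewer live cells and less ATP luminescence; stock transfer was 50 or 100 nL into about 30 µL; 0% = vehicle wells and 100% = a reference killing control; one replicate is shown; the record names a cut of 85%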
# A1 inhib: inhibitors of A1; MEF A1-2A-BIM cells, caspase-Glo luminescence, 3 h; percent of clofoctol signal, DMSO as zero; caspase activation, % (no concentration beside the values); 21,000 tested, 0.51% active; AID 2241;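 active = most replicate scores above 10, or exactly half above 10 with mean activity above 10; inconclusive = mean activity below 10 while half the replicates exceed 10; inactive = most replicate scores below 10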;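 note: effector caspase 3 and 7 activity cleaving a DEVD luciferin substrate; 50 nL library stock added to about 30 µL; numbers are from one replicate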
# * = called active by the depositor; u = inconclusive; x = not tested or not shown; & = joins results of further samples. Only part of the results is shown. The share of hits here may be higher or lower than overall.
SMILES,BJeLR viability,A1 inhib
C[C@H]1CN([C@@H](C)CO)C(=O)c2cc(NC(=O)C3CCCCC3)ccc2O[C@H]1CN(C)C(=O)Nc1cccc2ccccc12,0.7,0.9
O=C(/C=C/Sc1ccc(Cl)cc1)c1ccccc1,u,-1.0
Cc1ccc(S(=O)(=O)N(C)C[C@H]2Oc3ccc(NC(=O)Cc4cn(C)c5ccccc45)cc3C(=O)N([C@@H](C)CO)C[C@@H]2C)cc1,-2.0,0.3
C[C@@H]1CN([C@@H](C)CO)C(=O)c2cccc(NC(=O)c3cnccn3)c2O[C@H]1CN(C)Cc1ccc2c(c1)OCO2,-1.6,x
CCOC(=O)c1ccc(OC(=O)CCCCCN=C(N)N)cc1,-7.5,0.3
O=C(/C=C/c1ccc(O)cc1)NCCCCN(CCCN(CCCNC(=O)/C=C/c1ccc(O)cc1)C(=O)/C=C/c1ccc(O)cc1)C(=O)/C=C/c1ccc(O)cc1,1.7,0.0
CNC[C@@H]1Oc2ccc(NC(=O)CCC(F)(F)F)cc2C(=O)N([C@H](C)CO)C[C@@H]1C,4.0,-0.4
Cc1noc(C)c1S(=O)(=O)Nc1cccc2c1O[C@@H](CN(C)S(=O)(=O)c1cccs1)[C@@H](C)CN([C@H](C)CO)C2=O,-6.0,x
COc1ccc(NC(=O)N(C)C[C@@H]2Oc3ccc(NC(=O)Nc4ccc(F)cc4)cc3C(=O)N([C@H](C)CO)C[C@@H]2C)cc1,-1.4,0.6
CC(C)NC(=O)N(C)C[C@H]1Oc2c(NC(=O)c3cnccn3)cccc2C(=O)N([C@@H](C)CO)C[C@H]1C,-2.4,x
CCCCn1c(=S)[nH]c2ccccc2c1=O,-7.2,-0.3
CC(C)NC(=O)Nc1cccc2c1O[C@@H](CN(C)Cc1ccncc1)[C@@H](C)CN([C@@H](C)CO)C2=O,-4.8,x
O=C(c1ccccc1S(=O)(=O)NCc1ccccc1)N1CCCC1,4.9,0.2
C[C@H]1CN([C@@H](C)CO)C(=O)c2cc(NS(=O)(=O)c3ccc(F)cc3)ccc2O[C@H]1CN(C)S(=O)(=O)c1ccc(Cl)cc1,-3.3,-0.2
O=C(Nc1ccc(-c2nc3ccccc3o2)cc1)c1ccc(C(=O)c2ccccc2)cc1,4.1,1.1
C[C@@H]1CN([C@H](C)CO)C(=O)c2cccc(NC(=O)Nc3ccc4c(c3)OCO4)c2O[C@@H]1CN(C)S(=O)(=O)c1cccs1,8.4,x
Cc1noc(C)c1S(=O)(=O)Nc1cccc2c1O[C@H](CN(C)Cc1ccc(C(=O)O)cc1)[C@@H](C)CN([C@@H](C)CO)C2=O,0.9,x
CCOC(=O)c1c(C)[nH]c(=S)c(C#N)c1-c1ccc(OC)cc1,0.3,-0.4
COc1ccc(S(=O)(=O)N(C)C[C@H]2Oc3c(NC(=O)c4ccc(-c5nccs5)cc4)cccc3C(=O)N([C@@H](C)CO)C[C@H]2C)cc1,-10.2,x
Cc1ccc(C2=NN(S(C)(=O)=O)C(c3ccc4nccnc4c3)C2)cc1 (centres undefined),0.7,-2.8
C[C@@H]1CN([C@H](C)CO)C(=O)c2cccc(NS(=O)(=O)c3ccc(F)cc3)c2O[C@@H]1CN(C)Cc1ccc(C(F)(F)F)cc1,-0.7,x
CC(C)NC(=O)Nc1cccc2c1O[C@@H](CN(C)S(=O)(=O)c1ccccc1)[C@@H](C)CN([C@@H](C)CO)C2=O,1.1,x
C[C@H](CO)N1C[C@H](C)[C@@H](CN(C)C(=O)Nc2ccc(C(F)(F)F)cc2)Oc2ccc(NC(=O)c3ccncc3)cc2C1=O,-1.3,1.3
C[C@@H]1CN([C@@H](C)CO)C(=O)c2cccc(NC(=O)C3CC3)c2O[C@H]1CN(C)Cc1ccc(Oc2ccccc2)cc1,-0.1,x
COc1ccc(S(=O)(=O)Nc2ccc3c(c2)C(=O)N([C@H](C)CO)C[C@@H](C)[C@H](CN(C)Cc2ccc(C(=O)O)cc2)O3)cc1,1.3,1.1
COc1ccc(C(=O)/C=C/Nc2ccc(C(F)(F)F)cc2)cc1,2.8,-0.6
O=C(NC1CCCC1)[C@H](CSCc1ccccc1)N1Cc2ccccc2C1=O,1.0,x
C[C@@H]1CN([C@H](C)CO)C(=O)c2cc(NC(=O)c3ccncc3)ccc2O[C@@H]1CN(C)S(=O)(=O)c1ccc(F)cc1,4.2,-0.7
CCc1ccc(Nc2nc3ccccc3nc2NS(=O)(=O)c2ccc(C)cc2)cc1,-0.5,-0.3
C[C@@H]1CN([C@H](C)CO)C(=O)c2cc(NS(=O)(=O)c3ccc(F)cc3)ccc2O[C@@H]1CN(C)C,1.1,0.2
C[C@@H]1CN([C@@H](C)CO)C(=O)c2cc(NC(=O)Cc3ccccc3)ccc2O[C@H]1CN(C)S(=O)(=O)c1cccs1,2.5,0.2
C[C@H](CO)N1C[C@H](C)[C@@H](CN(C)C(=O)Nc2ccccc2)Oc2c(NC(=O)Nc3ccc(F)cc3)cccc2C1=O,-3.2,x
Cc1noc(C)c1NC(=O)N(C)C[C@H]1Oc2c(NS(=O)(=O)c3cccs3)cccc2C(=O)N([C@@H](C)CO)C[C@@H]1C,1.7,x
Cc1sc2c(c1C)CN(Cc1ccco1)CN2C(=O)c1ccccc1,5.3,-4.3
Cc1noc(C)c1NC(=O)Nc1ccc2c(c1)C(=O)N([C@@H](C)CO)C[C@H](C)[C@H](CN(C)C(=O)Nc1ccccc1)O2,0.8,-0.1
C[C@@H]1CN([C@@H](C)CO)C(=O)c2cccc(NS(=O)(=O)c3ccc(Cl)cc3)c2O[C@@H]1CN(C)C(=O)Nc1ccc2c(c1)OCO2,-4.5,x
O=C(O)c1ccc(CSc2nc(-c3ccccc3)cc(C(F)(F)F)n2)cc1,0.1,1.5
Cc1cc2c(c(Sc3ccc(Cl)cc3)n1)C(=O)NC2=O,2.7,-0.5
COc1ccc(NC(=O)Nc2cccc3c2O[C@@H](CN(C)S(=O)(=O)c2cccs2)[C@H](C)CN([C@H](C)CO)C3=O)cc1,-5.9,x
C[C@H](CO)N1C[C@H](C)[C@@H](CN(C)C(=O)Nc2ccc3c(c2)OCO3)Oc2ccc(NC(=O)Cn3cnnn3)cc2C1=O,1.3,1.1
CCCCc1ccc(NC(=S)NCCCN2CCOCC2)cc1,-6.1,1.2
CCOC(=O)C1=C(C)N(C)C(=O)NC1c1ccccc1OC (centres undefined),3.8,0.4
CCOC(=O)c1sc2sc(C(=O)OCC)c(-c3ccc(Cl)cc3)c2c1N,-2.1,0.3
C[C@H]1CN([C@@H](C)CO)C(=O)c2cc(NC(=O)Cc3cn(C)c4ccccc34)ccc2O[C@@H]1CN(C)C(=O)Nc1ccc(C(F)(F)F)cc1,0.5,0.4
C[C@@H]1CN([C@H](C)CO)C(=O)c2cccc(NC(=O)Nc3ccccc3)c2O[C@@H]1CN(C)C(=O)NC1CCCCC1,-1.9,x
COc1ccc(-n2ncc3c(N(Cc4ccccc4)Cc4ccccc4)ncnc32)cc1,0.8,0.8
Cc1cccc(NC(=O)CSc2cn(Cc3cccc(F)c3)c3ccccc23)c1C,-3.8,1.5
CC(=O)Nc1ccc(C(=O)N(CC#N)CC#N)cc1,0.9,0.4
Cc1ccc(S(=O)(=O)Nc2ccc3c(c2)C(=O)N([C@@H](C)CO)C[C@@H](C)[C@H](CN(C)S(=O)(=O)c2ccccc2)O3)cc1,5.2,-1.5
COC(=O)c1ccc(N2CCC(C)CC2)c(N)c1,-0.6,-1.7
C[C@H]1CN([C@@H](C)CO)C(=O)c2cccc(NS(=O)(=O)c3ccc(F)cc3)c2O[C@@H]1CN(C)S(=O)(=O)c1cccs1,-1.4,x
Cc1sc2ncnc(N3CCN(C)CC3)c2c1-c1ccccc1,3.5,-0.3
CC1=NN(c2ccccc2)C(=O)C1C (centres undefined),0.2,0.7
CCC(C)NC(=O)c1ccc2c(c1)N(Cc1ccc(C)cc1)CCS2 (centres undefined),-5.4,0.1
COc1ccc(S(=O)(=O)Nc2cccc3c2O[C@@H](CN(C)Cc2ccncc2)[C@H](C)CN([C@@H](C)CO)C3=O)cc1,-1.8,x
COc1ccc([C@@H]2CC(=O)c3c(O)cc(O[C@@H]4O[C@H](CO[C@@H]5O[C@@H](C)[C@H](O)[C@@H](O)[C@H]5O)[C@@H](O)[C@H](O)[C@H]4O)cc3O2)cc1O,-0.6,-0.3
C[C@H](CO)N1C[C@H](C)[C@@H](CN(C)C(=O)Nc2ccc(C(F)(F)F)cc2)Oc2c(NC(=O)Nc3ccc(C(F)(F)F)cc3)cccc2C1=O,2.6,x
Cc1c(C(=O)O)oc2ccc(S(=O)(=O)NCCc3ccccc3)cc12,1.8,0.5
CNC[C@H]1Oc2c(NC(=O)Nc3ccc(C(F)(F)F)cc3)cccc2C(=O)N([C@@H](C)CO)C[C@@H]1C,-2.2,x
CNC[C@H]1Oc2ccc(NC(=O)Nc3ccc(F)cc3)cc2C(=O)N([C@@H](C)CO)C[C@@H]1C,3.3,0.9
# Following part:
SMILES,BJeLR viability,A1 inhib
CNC[C@H]1Oc2c(NS(=O)(=O)c3c(C)noc3C)cccc2C(=O)N([C@@H](C)CO)C[C@H]1C,1.9,x
COc1ccc(-c2cc3cc(OC)c(OC)cc3c(Cc3ccccc3)n2)cc1,-2.1,-1.1
FC(F)(F)c1cc(-c2ccccc2)nc(NCCc2ccccc2)n1,3.6,x
C[C@H]1CN([C@@H](C)CO)C(=O)c2cc(NS(=O)(=O)c3cn(C)cn3)ccc2O[C@@H]1CN(C)CC1CCCCC1,0.2,0.6
CCC(Oc1ccccc1)C(=O)Nc1sc2c(c1C(N)=O)CCCC2 (centres undefined),-0.9,-0.1
Cc1nccn1CC1CCc2c(c3ccccc3n2C)C1=O (centres undefined),-5.2&-1.3,0.5&0.6
C[C@@H]1CN([C@H](C)CO)C(=O)c2cc(NC(=O)Nc3ccccc3)ccc2O[C@@H]1CN(C)Cc1ccncc1,2.2,0.4
Cc1noc(C)c1S(=O)(=O)Nc1ccc2c(c1)C(=O)N([C@H](C)CO)C[C@H](C)[C@H](CN(C)C(=O)Nc1ccccc1)O2,2.5,1.0
COc1cc(N=C(C)c2c(C)[nH]n(-c3nc4ccccc4s3)c2=O)cc(OC)c1,27.7,-2.9
CCN1C(=O)/C(=C2\SC(=S)N(NC(C)=O)C2=O)c2ccccc21,4.9,-0.2
COc1ccc(S(=O)(=O)Nc2cccc3c2O[C@@H](CN(C)C)[C@@H](C)CN([C@H](C)CO)C3=O)cc1,0.6,x
Cc1cccn2cc(CCNS(=O)(=O)c3ccc(Oc4ccccc4)cc3)nc12,9.6,-1.3
Cc1cc(C)c2c(N)c(C(=O)c3cccs3)sc2n1,-1.9,-0.4
C=CCn1cnc2ccc(Br)cc2c1=O,-1.0,x
CC(=O)Nc1sc2c(c1SC#N)CCCC2,-3.8,0.1
O=C1c2cnccc2CN1Cc1ccccc1,7.4,x
CNC[C@H]1Oc2ccc(NS(=O)(=O)c3ccccc3)cc2C(=O)N([C@@H](C)CO)C[C@@H]1C,-5.1,0.5
CC(=O)N(C(C)=O)c1nccc(-c2c(-c3ccccc3)noc2C)n1,-6.1,-0.2
C[C@H]1CN([C@@H](C)CO)C(=O)c2cc(NC(=O)Nc3ccc(F)cc3)ccc2O[C@H]1CN(C)Cc1ccncc1,2.5,1.1
C[C@@H]1CN([C@H](C)CO)C(=O)c2cc(NC(=O)NC3CCCCC3)ccc2O[C@H]1CN(C)Cc1ccc2c(c1)OCO2,-3.5,-0.2
C[C@H](CO)N1C[C@H](C)[C@@H](CN(C)Cc2ccncc2)Oc2c(NS(=O)(=O)c3ccc(F)cc3)cccc2C1=O,-1.4,x
COc1ccc(S(=O)(=O)Nc2cccc3c2O[C@H](CN(C)Cc2ccc(C(=O)O)cc2)[C@H](C)CN([C@@H](C)CO)C3=O)cc1,2.5,x
CCC(C(=O)NCc1ccccc1)n1c2ccccc2c2cn[nH]c(=O)c21 (centres undefined),-1.0,0.5
COc1ccc(-c2nc3ccccc3n2CCc2ccccc2)cc1OC,-0.5,0.7
Cc1ccc(S(=O)(=O)Nc2ccc3c(c2)C(=O)N([C@@H](C)CO)C[C@H](C)[C@H](CN(C)Cc2ccc(C(=O)Nc4ccccc4N)cc2)O3)cc1,13.4,x
CCc1ccc(N=C(N)N=C(N)N)cc1,3.4,-0.3
C[C@H]1CN([C@@H](C)CO)C(=O)c2cccc(NC(=O)NC3CCCCC3)c2O[C@H]1CN(C)C(=O)Nc1ccc2c(c1)OCO2,-0.3,x
Cc1c(NC(=O)CSc2ccccn2)c(=O)n(-c2ccccc2)n1C,-1.6,x
O=CN/C=C\c1ccc(O)cc1,x,-0.6
O=c1onc(-c2cccs2)n1Cc1ccc(F)cc1Cl,1.7,-0.5

# Compound activity deposited in PubChem by Broad Institute.
